# Screens deposited in PubChem BioAssay by several laboratories.
# UUG fidelity: alters start codon recognition fidelity in yeast; S. cerevisiae UUG-firefly luciferase reporter, luminescence/redox ratio; activity score, % at 18.7 µM; hit rate 0.13% among 350,000;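 active = replicate mean at a twofold rise or more, about +100% in these data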;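 note: firefly luciferase made from a UUG start codon reports start codon fidelity; reporter light over untreated wells divided by growth signal over untreated wells; some hits fall short of that in this replicate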
# HIV Env fusion: blocks HIV Env-driven cell-cell fusion; HeLa-JRFL Env/CEM21 cell fusion, luciferase; inhibition, % at 12.3 µM; hit rate 1.1% among 360,000; AID 651610;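 active = mean replicate inhibition score of at least 50 and every replicate individually at or above 50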;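 note: 0% = plate neutral controls and 100% = maraviroc near 300 nM; one replicate is shown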
# PABP polyA inh: PABP-poly(A) binding inhibition. inhibition, % at 35 µM. hit rate 1% among 290,000. PABP-poly(A) RNA binding, fluorescence polarization. P11940;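 active = 50% or more with normal probe brightness, or confirmed in later tests; about a fifth of its hits are not listed in these tables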;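 note: calls also rest on retests at 20 µM and on dose response follow-up; controls were probe without protein and protein plus probe with vehicle; some compounds called inactive have numbers as strong as hits; many hits fall short of the cut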
# MT1-MMP act inh: blocks activation of human MT1-MMP | P50281 | HT1080 RFP-PRO-GFP cells, GFP/RFP ratio fluorescence, overnight; percent of plate control window, DMSO zero | GFP/RFP ratio change, % at 20 µM | hit rate 0.061% among 360,000 | AID 651647;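 active = GFP/RFP ratio change of at least 30% with cell ATP level not reduced by more than half and red fluorescence within 50% of control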; note: strong numbers were not always called active
#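 Compound: 20 µM single dose, 1% DMSO / System: HT1080 RFP-PRO-GFP cells / Controls: DMSO and RFP-L50D-GFP cell wells / Read-out basis: GFP/RFP fluorescence ratio / Schedule: overnight compound exposure at 37 °C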
# CSC inhib: blocks cancer stem cells; AID 2717; cancer stem cell-like cells viability, luminescence; inhibition, % at 7.5 µM; hit rate 1.1% among 300,000;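 active = mean at 75% or more and at least half the replicates too; tested in HMLE shEcad cells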;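 note: 0% = median of negative and 100% = median of positive control wells; the first replicate is given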
# eIF4H FP inh: inhibitors of RNA binding by human eIF4H; AID 2012; eIF4H fluorescence polarization binding assay; hit rate 0.94% among 290,000; inhibition, % at 35 µM; Q15056;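 active = 50% or more with normal probe brightness, or confirmed in later tests; about a fifth of its hits are not listed in these tables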;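 note: calls also rest on retests at 20 µM and on dose response follow-up; 0% = protein and probe with vehicle and 100% = probe without protein; strong numbers were not always called active; many hits fall short of the cut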
# Rce1 inhib: yeast Ras-converting enzyme inhibition; hit rate 0.27% among 290,000; Q03530; yeast membranes, quenched prenylated peptide cleavage fluorescence; AID 2563; calls only;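 active = fall in fluorescence gain of 50% or more versus controls, with final raw signal at or below 3038400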;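 note: plate controls were neutral control wells for no effect and wells lacking membranes for full effect; tested at 10 µM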
# Target sequence (Q03530 whole entry, looked up): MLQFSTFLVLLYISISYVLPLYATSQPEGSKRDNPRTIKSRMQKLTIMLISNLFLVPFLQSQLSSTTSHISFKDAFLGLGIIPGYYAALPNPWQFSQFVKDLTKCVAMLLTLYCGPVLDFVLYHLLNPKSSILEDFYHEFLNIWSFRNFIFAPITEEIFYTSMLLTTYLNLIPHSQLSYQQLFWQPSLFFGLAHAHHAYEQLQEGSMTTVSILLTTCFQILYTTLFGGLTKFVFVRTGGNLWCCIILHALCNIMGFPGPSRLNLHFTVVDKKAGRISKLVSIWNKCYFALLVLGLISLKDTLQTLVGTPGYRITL
# eIF4H FP inh retest: also measured in eIF4H FP inh; calls as there; inhibition, %; compound at 20 µM; confirmation average;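 mean of two retest wells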
# PABP polyA inh retest: second read-out of PABP polyA inh, no call of its own (marks repeat the call); inhibition, %; compound at 20 µM; confirmation repeats;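 mean of two retest wells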
# MT1-MMP act inh RFP: also measured in MT1-MMP act inh; calls as there; RFP signal change, %; measured here: RFP expression control read;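 0 = vehicle wells; hits needed this value within 50% of zero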
# The depositor's hits bear a star; i = inactive; nt = no result given; & = joins results of further samples. This is a subset; count on the stated rates, not on these rows.
SMILES,UUG fidelity,HIV Env fusion,PABP polyA inh,MT1-MMP act inh,MT1-MMP act inh RFP,CSC inhib,eIF4H FP inh,Rce1 inhib,others
COc1ccc(N2CCN(c3nc4c(C)cccn4c(=O)c3C=C(C#N)C#N)CC2)cc1,-1,7,-2,-4,-5,nt,8,i,
CCS(=O)(=O)c1ccc(N=Nc2ccc(O)c3ncccc23)c(OC)c1,nt,66*,0,10,-30,nt,8,i,
CCn1c(C)c(CCC(=O)O)c(=O)n2nc(-c3ccccc3OC)cc12,-6,8,-4,5,-1,7,-11,i,
O=c1c(-c2ccc(Br)cc2)[n+]([O-])c2ccccc2n1OCc1ccccc1,-17,19,-6,7,2,-7,0,i,
O=C(NCc1nc2ccccc2[nH]1)c1ccc(Cl)c(S(=O)(=O)N2CCCC2)c1,-24,nt,-11,-2,-6,-17,6,i,
CC1=C(C(=O)Nc2ccccc2C(=O)N2CCCCC2)SCCO1,9,-4,-8,2,2,-12,-10,i,
COCP(=O)(c1ccccc1)c1ccccc1,-11,-13,4,3,2,-2,8,i,
O=C(c1ccccc1)N1CCN(S(=O)(=O)c2cccs2)CC1,-14,-33,-7,-1,0,3,-7,i,
CCCCCCCCOC(=O)c1ccc(N)cc1,nt,8,-7,2,0,34,-4,i,
CC(C)(C)n1nc2c(c1NC(=O)Cc1cccc3ccccc13)CS(=O)(=O)C2,1,-2,-8,0,0,5,-4,i,
CC(C)C(C(=O)O)N1C(=O)C2C3CCC(C3)C2C1=O (centres undefined),-16,2,nt,0,6,nt,nt,nt,
Cc1cccc(NC(=S)NC(=O)/C=C/c2ccco2)n1,nt,nt,60*,-1,2,12,56*,i,

# The list goes on; the last 6 above are carried over.
SMILES,UUG fidelity,HIV Env fusion,PABP polyA inh,MT1-MMP act inh,MT1-MMP act inh RFP,CSC inhib,eIF4H FP inh,Rce1 inhib,others
COCP(=O)(c1ccccc1)c1ccccc1,-11,-13,4,3,2,-2,8,i,
O=C(c1ccccc1)N1CCN(S(=O)(=O)c2cccs2)CC1,-14,-33,-7,-1,0,3,-7,i,
CCCCCCCCOC(=O)c1ccc(N)cc1,nt,8,-7,2,0,34,-4,i,
CC(C)(C)n1nc2c(c1NC(=O)Cc1cccc3ccccc13)CS(=O)(=O)C2,1,-2,-8,0,0,5,-4,i,
CC(C)C(C(=O)O)N1C(=O)C2C3CCC(C3)C2C1=O (centres undefined),-16,2,nt,0,6,nt,nt,nt,
Cc1cccc(NC(=S)NC(=O)/C=C/c2ccco2)n1,nt,nt,60*,-1,2,12,56*,i,
N#CCc1nn2c(-c3ccccc3)ccnc2c1C#N,-3,1,7,2,1,2,5,i,
CC(=O)Nc1ccc(S(=O)(=O)NCCc2cn3nc(C)c(C)nc3n2)cc1,-17,-12,-4,0,5,-4,-17,i,
CCOC(=O)c1c(N)sc2c1CCC1C(=O)N(C3CCCCC3)C(=O)C21 (centres undefined),-21,nt,34,-21,4,10,28,i,
Cc1ccsc1/C=N/n1c(COc2ccccc2)n[nH]c1=S,-18,7,-7,2,0,-4,-12,i,
Cn1nc(C(=O)Nc2cccc(S(=O)(=O)N3CCOCC3)c2)c2ccccc2c1=O,7,-10,nt,4,1,-6,nt,nt,
Cc1nnc2c(NC3CCCC3)nc3ccccc3n12,nt,14,-22,19,8,-16,-3,i,
COc1ccccc1C(=O)NCC(=O)NC1CCCc2ccccc21 (centres undefined),nt,23,13,2,2,0,-6,i,
CCOC(=O)C1CCCN(CCC(=O)Nc2cccc(C)c2)C1 (centres undefined),nt,-5,5,4,0,1,0,i,
COc1ccccc1C(=O)N=Nc1c(O)[nH]c2ccc([N+](=O)[O-])cc12,nt,-33,-4,-1,5,nt,-5,nt,
CC1CCN(C(=O)c2ccc(NS(=O)(=O)c3ccccc3)cc2)CC1,-11,-14,-12,1,-4,-1,10,i,
C=CCn1c(SCC(=O)c2ccccc2)nnc1-c1cc2ccccc2o1,-3,nt,-7,-2,-10,-6,-9,i,
Cc1ccc2cc3cc(C(=O)N4CCN(Cc5ccccc5)CC4)sc3nc2c1,-14,-7,-5,1,0,-8,0,i,
COc1ccc([C@H]2CN(Cc3ccccc3)C(=O)[C@@H]2CC(=O)Nc2ccccc2)cc1,-2,0,nt,1,-2,nt,nt,nt,
COc1ccc(OCC(O)CNCCOc2ccccc2OC)c(C(C)(C)C)c1 (centres undefined),1,1,1,-7,-7,24,7,i,
COc1ccc(NC(=O)CCC(=O)Nc2cc(OC)c(NC(=O)c3cccs3)cc2OC)cc1,-10,-6,12,-1,0,-17,-10,nt,
CCOc1ccc(NC(=O)NC(C)CC)cc1 (centres undefined),-42,-2,-11,-1,0,2,11,i,
O=Cc1ccc(Oc2ncccn2)cc1,nt,1,2,0,3,-13,3,i,
CC1CCC2C(=O)N(c3ccc(S(=O)(=O)c4ccccc4)cc3)C(=O)C2C1 (centres undefined),nt,8,1,-1,0,-10,7,i,
Cc1cc(C)c(NC(=O)CN)c(C)c1,nt,-5,-6,-2,4,1,-11,i,
Cc1cc(NC(=O)c2cccs2)n(-c2nc3ccccc3[nH]2)n1,nt,9,-1,-3,-4,54,3,i,
CC1CN(C(=S)SCC(=O)c2ccc([N+](=O)[O-])cc2)CC(C)O1 (centres undefined),-5,-2,1,0,-2,2,-2,i,
CC(C)(C)S(=O)(=O)/C(C#N)=N/Nc1ccc(Cl)cc1,nt,58*,7,-10,-31,25,7,nt,
COc1cccc(O)c1CN1CCCC(C(=O)c2cccc(C(F)(F)F)c2)C1 (centres undefined),-9,15,0,-2,0,6,-7,i,
CCOC(=O)c1ccc(S(=O)(=O)Nc2cc(S(=O)(=O)N3CCOCC3)ccc2O)cc1,-13,4,nt,1,8,-5,nt,nt,
Nc1nc(N)c2cc(Sc3ccc(Cl)cc3)ccc2n1,-22,-1,nt,-4,-15,nt,nt,nt,
O=C(COC(=O)COc1cccc(C(F)(F)F)c1)Nc1ccc(N2CCOCC2)cc1,-10,4,nt,-2,1,-2,nt,nt,
COc1cc(/C=C/C(=O)OCN2C(=O)c3ccccc3C2=O)ccc1OC(F)F,-8,-9,-1,0,5,2,-2,i,
CCOC(=O)C(CCOc1cccc(CC)c1)C(=O)OCC,-11,nt,-3,-2,2,nt,-3,i,
COc1cc(NC(=O)CNC(=O)Cn2ccc3ccccc3c2=O)cc(OC)c1OC,-6,4,9,1,1,-11,-7,i,
Cc1oc(C)c(C(=O)O)c1C(=O)O,-15,-4,14,3,6,2,2,i,
CS(=O)(=O)N(CC(=O)N1CCCCC1)C1CCCCC1,nt,-90,1,2,0,4,-2,i,
COc1ccc(/C=N/NC(=O)c2ccc(OC)c(OC)c2)cc1COc1c(F)c(F)c(F)c(F)c1F,-2,-10,1,3,3,0,-3,i,
CSc1nc(SCC(=O)O)c2sc3nc(-c4ccccc4)c4c(c3c2n1)CCC4,-10,-31,62*,3,-10,nt,71*,i,
O=S(=O)(NN1CCOCC1)c1ccc(Cl)s1,-4,-3,-6,2,4,15,4,i,
O=C(CN1C(=O)C2CCCCC2C1=O)Nc1cc([N+](=O)[O-])ccc1F (centres undefined),-16,nt,nt,-2,0,3,nt,nt,
O=C(CCCSc1nc2ccccc2c(=O)[nH]1)c1ccccc1,-4,0,-8,0,3,6,-1,i,
Cc1ccc2nc(SCC(=O)N/N=C/c3ccco3)cc(C)c2c1,nt,2,-9,-8,-5,0,7,i,
O=C(NNC(=O)C1C2C=CC(C2)C1C(=O)O)c1cc(Cl)ccc1O (centres undefined),-16,7,12,1,4,-5,-6,i,
OC(CN1CCN(C(c2ccccc2)c2ccccc2)CC1)c1ccccc1 (centres undefined),-12,nt,14,0,3,1,8,i,
COc1cccc(N2CCN(S(=O)(=O)c3ccc4c(c3)oc(=O)n4C)CC2)c1,-9,3,-5,-1,2,-4,6,i,
O=C(CN1CCN(c2cccc(Cl)n2)CC1)N1CC(O)CO1 (centres undefined),nt,5,0,-2,2,-6,2,i,
O=C(NCCc1csc(-c2ccccc2)n1)c1c(F)cccc1Cl,nt,-17,-6,3,3,2,3,i,
Cc1nc(SC2CC(=O)N(c3ccccc3)C2=O)n[nH]1 (centres undefined),nt,-6,-3,1,2,-12,0,nt,
OC1(c2cccc(C(F)(F)F)c2)CCN(Cc2nnnn2CCc2ccccc2)CC1,-32,nt,-4,-2,-7,5,-3,i,
Cc1cc(C)cc(N(CC(=O)O)S(=O)(=O)c2c(C)[nH]c(=O)[nH]c2=O)c1,-50,-16,-8,3,6,nt,-6,i,
C[C@@H]1CC[C@]2(O[C@H](CCO)C[C@@H](O)[C@@H]2O)O1,3,-25,nt,9,7,-12,nt,i,
CCOC(=O)CSc1nc(C)c2cc(C)c(C)cc2n1,4,2,2,-1,0,-20,-3,i,
OCC1(CO)COC2(CCCC2)N1,-10,-9,-5&15,3,3,1,-8&3,i,
Nc1sc2c(c1C(=O)c1ccccc1)CCCC2,-24,-24,3,0,-3,-3,12,i,
O=C(NCCNc1ccc([N+](=O)[O-])cc1)c1cccc(Br)c1,-18,nt,17,-3,-2,8,53,i,eIF4H FP inh retest=-6;PABP polyA inh retest=2
O=C(Oc1c(Cl)cc(Cl)c2ccccc12)N1CCCC1,-14,22,0,-4,-7,9,87,i,eIF4H FP inh retest=-5;PABP polyA inh retest=8
O=C(NCCc1cccc(F)c1)[C@@H]1CSC2c3ccccc3C(=O)N21 (some centres undefined),7,nt,18,3,2,-6,4,i,
CCCc1nc2c(=O)n(C)c(=O)[nH]c2n1CCC,-18,nt,8,3,6,-14,9,i,
O=C(Nc1nccs1)C1C2/C=C\CCCCC21 (centres undefined),0,nt,-7,0,-1,nt,-3,nt,
CCC(=O)Nc1ccc2c(c1)ncn2-c1ccc(OC)cc1,-6,-87,1,2,9,nt,-4,i,
O=C(NCc1cccs1)c1cnn2cccnc12,-7,nt,-5,-1,0,-3,-4,i,
Cc1cccc(/C=N/NC(=O)Cn2nnnc2N)n1,-14,-3,0,1,3,-23,-1,i,
COc1ccc(C(=O)Nn2c(C)nnc2-n2nc(C)cc2C)cc1OC,-4,16,-14,-2,2,2,2,i,
O=C(Nc1ccc(S(=O)(=O)N2CCCCC2)cc1)C1CCCO1 (centres undefined),-9,-14,5,-1,0,-8,-1,i,
COc1ccc(C(=O)N[C@H](C(=O)Nc2nc3c(s2)CCCC3)C(C)C)cc1,0,-5,2,-3,-3,2,-3,i,
# Next section:
SMILES,UUG fidelity,HIV Env fusion,PABP polyA inh,MT1-MMP act inh,MT1-MMP act inh RFP,CSC inhib,eIF4H FP inh,Rce1 inhib,others
CCOC(=O)/C=C/C(=O)OCC(=O)Nc1ccc(OC)c(Cl)c1,-20,19,38,4,5,nt,-16,i,
COc1ccc(N(CC(=O)NC2CCCCC2)C(=O)c2ccc(C)s2)c(OC)c1,-18,12,2,-3,-2,-14,-5,i,
CS(=O)(=O)N1CCC(C(=O)NCc2ccco2)CC1,-10,nt,19,-1,3,-1,16,i,
Cc1ccccc1OCC(=O)OCC(=O)c1ccc(OCc2ccccc2)cc1,-17,2,3,1,3,1,-4,nt,
NC(=O)C1CCN(C(=O)CSc2nc(O)cc(=O)[nH]2)CC1,-5,-12,0,-2,4,-5,-1,nt,
O=C(Nc1ccccc1Br)C1CCCN1S(=O)(=O)c1cccc2nsnc12 (centres undefined),nt,2,4,-1,-1,nt,4,i,
Cc1cc(=O)oc2cc(OCC(=O)OC(C)C(=O)NC3CCCC3)ccc12 (centres undefined),-8,-2,-10,-1,0,-12,-3,i,
CC[C@H](C)[C@@H](C(=O)NCCCCCCCCCCC(=O)N1CCNCC1)n1cc(CCCCCN)nn1,-17,-33,nt,1,-6,-2,nt,nt,
